# Compound activity from PubChem.
# Tg IFNy HTS – blocks Toxoplasma gondii growth in the presence of IFN-gamma; Toxoplasma gondii growth in IFN-gamma-treated host cells; stronger effect = lower value; reference of the scale not given here; activity change, negative = inhibition, %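 (about 20 µM by stock and volumes)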; 3.8% of 69,000 active;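 active = below -70%; inconclusive = fit judged invalid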;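 also: host cells are HeLa cells infected with Toxoplasma gondii; parasite growth read as luciferase light; one replicate is shown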
# Numbers without * were called inactive; i = inactive; ? = inconclusive; & = joins results of further samples.
# Start of the listing, in advance (4 entries):
molecule	Tg IFNy HTS
C[C@H]1CCCCO[C@@H](CN(C)C(=O)CCC(F)(F)F)[C@@H](C)CN([C@@H](C)CO)C(=O)c2cc(NC(=O)C3CCCCC3)ccc2O1	?
CN(C)CC(=O)N1CCC2(CC1)CC(=O)N(c1cccnc1)c1ccccc12	-7.0
Cc1cccc(OC(C)C(=O)N2CCC(C(N)=O)CC2)c1 (stereo not given)	10.9
O=C(Nc1ccccc1F)N[C@H]1CC[C@H](CCNC(=O)C2CC2)O[C@H]1CO	-19.6

# Main list (from the top)
molecule	Tg IFNy HTS
C[C@H]1CCCCO[C@@H](CN(C)C(=O)CCC(F)(F)F)[C@@H](C)CN([C@@H](C)CO)C(=O)c2cc(NC(=O)C3CCCCC3)ccc2O1	?
CN(C)CC(=O)N1CCC2(CC1)CC(=O)N(c1cccnc1)c1ccccc12	-7.0
Cc1cccc(OC(C)C(=O)N2CCC(C(N)=O)CC2)c1 (stereo not given)	10.9
O=C(Nc1ccccc1F)N[C@H]1CC[C@H](CCNC(=O)C2CC2)O[C@H]1CO	-19.6
CCCNC(=O)N1CC2(C1)CN(C(=O)NC1CCCC1)[C@@H](CO)c1[nH]c3cc(OC)ccc3c12	-9.8
CC(=O)N1CC2(C1)[C@H](c1ccc(-c3ccc(F)cc3)cc1)[C@H](CO)N2CC1CC1	-24.7
CCSc1nc(CC(=O)N(C)Cc2nonc2C)cs1	-18.4
Cn1cnnc1Sc1ccc(CN2CCc3[nH]c4ccc(F)cc4c3C2)o1	14.0
COC(=O)c1cc(CN2CCN(C(=O)c3cccc(OC)c3)CC2)cs1	4.7
Cc1c(C(=O)N2CCC(O)(CN(C)C)C2)sc2ncn(C)c(=O)c12 (stereo not given)	2.8
NCCc1nncn1-c1cccc2ccccc12	6.7
CSc1ccccc1NC(=O)CCC(=O)N(C)C1CCN(C)CC1	3.2
Cc1noc(C)c1S(=O)(=O)Nc1ccc2c(c1)CC(=O)N([C@@H](C)CO)C[C@H](C)[C@@H](CN(C)Cc1ccc(Oc3ccccc3)cc1)O2	-55.1
CC(C)NC(=O)Nc1ccc2c(c1)C(=O)N([C@H](C)CO)C[C@@H](C)[C@H](CN(C)C(=O)C1CCCCC1)OCCCC[C@@H](C)O2	i
CSc1ccccc1N1C(=O)CSC1=S	31.1
CC(C)CC(=O)Nc1ccc2oc(-c3ccncc3)nc2c1	98.8
COc1ccccc1CN(C(=O)c1ccc(N2CCOCC2)cc1)C1CCN(C)CC1	8.7
CC1(C)CC1(CNC(=O)CN1C(=O)CNC1=O)c1ccccc1 (stereo not given)	1.5
COc1ccccc1NC(=O)c1nnn(Cc2nc(-c3ccc(OC(C)C)cc3)oc2C)c1C	?
O=S(=O)(Cc1ccccc1)N1CCN(c2nc3ccccc3s2)CC1	-16.2

# (next part)
molecule	Tg IFNy HTS
Cc1ccc(-c2coc(-c3ccc(NS(=O)(=O)c4cccc(Cl)c4C)cc3)n2)c(C)c1	-48.8
COCc1ncn2c1CN(C(=O)c1ccoc1)CC2	-23.1
COc1ccc(S(=O)(=O)N2C[C@@H](O)COC[C@H]3O[C@@H](CC(=O)N[C@@H]4CCN(Cc5ccccc5)C4)CC[C@@H]32)cc1	-6.9
CCc1ccc(NC(=O)N2CCN(Cc3nc(-c4ccc(C)cc4)oc3C)CC2)cc1	-0.8
CCCCCCCCC(=O)NCc1cc(OC)c(O)cc1I	8.0&11.5
CNC(=O)c1ccc(-c2nc(CN3CCN(C(=O)Nc4ccc(C(=O)OC)cc4)CC3)c(C)o2)cc1	120.8
Cc1cccc(C)c1NC1=NC(=S)N(c2cccc(Cl)c2)C12CCCC2	-58.6
Cn1c(=O)n(C)c2cc(C(=O)N3CCC(c4ccncc4)CC3)ccc21	-9.0
CCOCC1CN(C(=O)c2cccs2)Cc2cnn(CC3CC3)c21 (stereo not given)	-16.5
CCOc1ncccc1CNC(=O)C1Cc2ccccc2CN1CC (stereo not given)	-0.2
CC(=O)Nc1cccc(NC(=O)c2ccc(CN3CCCC(C)(O)C3)cc2)c1 (stereo not given)	32.3
Cc1nnsc1CN(C)C(=O)Cc1cc2c(cc1Cl)OCCO2	-12.7
Cc1oc2cc(OCc3ccc(F)cc3)ccc2c(=O)c1-c1ccc2c(c1)OCCCO2	-47.4
CC(C(=O)O)c1ccc2c(c1)Cc1cccnc1O2 (stereo not given)	14.1
CC(C)[C@H]1CN(Cc2ccco2)CCN1Cc1cccs1	32.3
CCc1c(C)sc2ncnc(N3CC(c4ccccn4)C3)c12	-47.9
CC(C)NC(=O)N1CCn2cc(CN(C)Cc3cccnc3)nc2C1	2.3
Cc1ccc(C(N)=O)c(N2CC[C@@H](c3ccc4c(c3)OCO4)[C@H](O)C2)n1	-1.6
Fc1cccc(CN2CCN(Cc3cnc(C4CCCCC4)nc3)CC2)c1	1.4
CCc1ccc2oc(=O)cc(CN3CCC(Oc4cccnc4)CC3)c2c1	-14.9

# Other compounds
molecule	Tg IFNy HTS
Cn1c2ccccc2c2n[nH]c(=O)nc21	-105.2*
CCOC(=O)C1CCN(S(=O)(=O)Cc2ccccc2)C1=O (stereo not given)	-44.0
CC(C)NC(=O)N1Cc2nccn2CC(CN(C)C(C)C)C1 (stereo not given)	5.6
COc1cccc(C(=O)N2C[C@H](OCC3CC3)[C@@H]3OCCC[C@@H]32)c1	-5.8
Cc1ncccc1OC1(C(=O)N2C[C@H]3CC=CC[C@H]3C2)CCNCC1	-4.6
C[C@H]1CN([C@@H](C)CO)C(=O)Cc2cc(N(C)C)ccc2O[C@@H]1CN(C)Cc1ccc(-c2ccccc2)cc1	45.9
Fc1ccc(CSc2nc(NCc3ccccc3)c3ccccc3n2)cc1	-68.7
Clc1ccc(N2N=C(c3cccs3)CC2c2cccs2)cc1 (stereo not given)	14.2
O=C(c1ccc(-n2ncc3c(Cl)cccc32)o1)N1CCOCC1	54.6
COc1ccc(CC(=O)Nc2ccc(-c3nc(Cn4cccn4)c(C)o3)cc2)cc1Cl	-34.6
NC1=NC(=O)S/C1=C\c1ccc(-c2nc3ccccc3s2)o1	135.2
CN1C[C@@H]2[C@H](c3ccccc31)[C@@H](CO)N2Cc1ccccc1Cl	21.5
CC(C)(O)C#Cc1ccc(-c2n[nH]c(Cc3ccccc3)n2)o1	-24.4
O=C(COC(=O)c1cc2ccccc2oc1=O)c1ccc(Cl)cc1Cl	4.4
Cc1ccc(C(=O)NCCc2csc(-c3ccc(C(F)(F)F)cc3)n2)cc1	i
Cc1nc(-c2ccccc2)c(C(=O)N2CCC(O)(CN(C)C)C2)s1 (stereo not given)	1.5
O=C1CCCc2occ(C(=O)N3CCCC(c4ccn[nH]4)C3)c21 (stereo not given)	0.8
CCn1ncc(Cl)c1C(=O)N1CCOC(c2ccc(Cl)cc2)C1 (stereo not given)	-65.1
CCN1C(=O)CC(c2ccncc2)C12CCN(Cc1nccs1)CC2 (stereo not given)	0.3
C[C@@H]1CCC[C@H](C)N1NC(=O)c1ccc(Cl)c(S(N)(=O)=O)c1	18.4

# New compounds follow:
molecule	Tg IFNy HTS
CN1C(=O)[C@@H]2CN(c3ncccn3)C[C@@H]2C12CCN(S(C)(=O)=O)CC2	-48.9
Cc1nc(NCC2CC2)nc2c1COCC21CCN(c2ncc(F)cn2)C1 (stereo not given)	-38.2
Cc1ccc(C2(O)CCN(c3nc4ccccc4s3)CC2)nc1	438.0
CCc1cc(-c2cccnc2OC)ccc1NC(C)=O	-7.1
COc1ccccc1C(=O)Nc1cccc(-n2cnnc2)c1	-7.8
O=C1NCC(=O)N2CCN(Cc3cccc(CN4CCOCC4)c3)CC12 (stereo not given)	-1.0
CCC(C(=O)NCc1snnc1C)n1cc(C(C)=O)c2ccccc21 (stereo not given)	-28.9
Cc1cc(=O)n2c([nH]c3ccccc32)c1C#N	52.3
Cc1oc(-c2ccccc2)nc1Cn1nnc(-c2nc(-c3ccc(F)c(Cl)c3)no2)c1C	2.4
CCc1ccc(NC(=O)C(=O)NCCc2sc(-c3ccccc3)nc2C)cc1	132.4
C[C@@H]1CN([C@@H](C)CO)C(=O)Cc2cc(NC(=O)C3CCCCC3)ccc2O[C@H]1CN(C)Cc1ccc(Cl)c(Cl)c1	-33.4
Cn1ccnc1CN(CC(O)CO)C1CC1 (stereo not given)	3.4
Cc1nnc(SCC(N)=O)n1-c1cccc(Cl)c1	-1.3
Nc1nccc(-c2csc(COc3ccc(Cl)cc3)n2)n1	35.4
CC(=O)N1CC2(C1)[C@@H](c1ccccc1)[C@@H](CO)N2C(=O)Cc1ccccc1	-11.6
O=C(NCCc1csc(-c2cccc(F)c2)n1)c1ccccc1Br	15.3
Cc1ccccc1NC(=O)c1c(C)cc(=O)oc1C	-2.2
O=S(=O)(Nc1ccc(Cl)cc1)c1ccc(Cl)s1	-1.3
Cc1oc(-c2ccc(C(=O)Nc3ccc(F)cc3)cc2)nc1CN1CCN(c2ccccc2)CC1	-22.5
COc1ccc2c3c(n(C)c2c1)[C@@H](CO)N(C(=O)Nc1ccc(F)cc1)CC31CN(Cc2ccccc2F)C1	-59.5

# 2 compounds drawn at random from the list so far:
molecule	Tg IFNy HTS
CCN1C(=O)CC(c2ccncc2)C12CCN(Cc1nccs1)CC2 (stereo not given)	0.3
CSc1ccccc1N1C(=O)CSC1=S	31.1

# New compounds follow
molecule	Tg IFNy HTS
Cc1ccc(C(=O)C(NC(=O)c2ccco2)N2CCOCC2)cc1 (stereo not given)	-26.5
Cc1cc(CNC(=O)CN2C(=O)CNC2=O)c2[nH]c(-c3ccccc3)c(C)c2c1	74.8
COc1ccc(C(=O)N2C[C@H]3[C@@H](c4ccccc42)[C@H](CO)N3C(=O)NC(C)C)cc1	10.1
Cc1ccccc1NC(=O)c1ccc2ccc(N3CCN(C)CC3)n2c1	-2.1
CCOC(=O)c1cccnc1N1Cc2cnc(CC(C)C)nc2C1	0.5
Cc1nnc(SCCCNC(=O)[C@@H]2C[C@@H](O)CN2)s1	5.7
CC1(C#CCN2CCCCC2)CCC2C(O1)c1ccccc1OC2(C)C (stereo not given)	-21.6
Cc1ccc2[nH]c3c(=O)n(CCC(=O)NCc4ccncc4)cnc3c2c1	15.1
COc1cc(NC(=O)CN2C(=O)CCc3cc(Br)ccc32)cc(OC)c1	-31.4
COc1ccccc1-c1ccc2c(c1)O[C@@H](CN(C)CC1CCOCC1)[C@H](C)CN([C@H](C)CO)S2(=O)=O	-42.4
COc1ccc(CN2C[C@@H](O)COC[C@@H]3O[C@@H](CC(=O)N(C)C)CC[C@H]32)cc1	44.7
Cc1ccc(S(=O)(=O)Cc2ccc(C(F)(F)F)cc2)cc1	-18.6
CN(c1ncccn1)C1COC2(CCCN(CC3CCOCC3)C2)C1 (stereo not given)	8.2
CC(=O)N(C/C=C/c1ccccc1)CCO	13.0
Cc1[nH]c2c(c1C(=O)N1CCCC3(CCN(C)C3)C1)C(=O)CCC2 (stereo not given)	2.2
CC(=O)NCC(=O)N1Cc2nccn2CC(Cn2nc(C)nc2C)C1 (stereo not given)	-3.8
c1ccc(CN2CCC(N3CC(c4cccnc4)C3)CC2)cc1	-3.2
c1ccc2ncc(-c3ccncn3)cc2c1	1.9
COCCn1cnc(-c2cc(C(=O)NCC3CCCO3)c3ccccn23)c1 (stereo not given)	-5.0
OCc1ccc(O[C@@H]2O[C@@H](CO)[C@@H](O)[C@H](O)[C@H]2O)cc1	8.2

# Next results follow.
molecule	Tg IFNy HTS
CCS(=O)(=O)N1CCc2c(nnn2CC2CC2)C1COCC1CC1 (stereo not given)	-5.0
Cc1cccc(S(=O)(=O)N2C[C@@H]3[C@H](c4ccccc42)[C@H](CO)N3CC2CCCC2)c1	-39.4
CNc1nc(N(C)C)nc(N(C)C)n1	3.9
CCOC(=O)c1sc(-c2cccs2)nc1C	91.4
CS(=O)(=O)Nc1nc(CC(=O)O)cs1	-10.0
O=C(CCn1cnnn1)N1CCN(C(=O)c2cccc(F)c2)CC1	48.0
CN(Cc1cc(-c2ccncc2)no1)Cc1cc2c(cc1Cl)OCO2	-11.3
CCOc1ccc(-c2nc(CN3CCN(C(=O)Nc4cc(OC)ccc4OC)CC3)c(C)o2)cc1	2.0
CO[C@H]1CN(C)C(=O)c2cc(NC(=O)NC(C)C)ccc2OC[C@@H](C)N(C(=O)CN(C)C)C[C@@H]1C	-9.5
CNC(=O)N1CCN(Cc2cnn(C)c2)CC2(CCCC(=O)N2)C1 (stereo not given)	66.4
CCc1nc(NC(=O)NCc2cccc(C)n2)nn1C	10.7
CCn1ncc2c1C(COC)CN(C(=O)N1CCCC1)C2 (stereo not given)	1.4
COc1cccc2cc(-c3csc(-c4ccc(Cl)cc4)n3)c(=O)oc12	-0.7
Cc1cccc(Nc2cc(N3CCOCC3)c3noc4c3c2C(=O)c2ccccc2-4)c1	-27.9
CCN(Cc1cnc(N)nc1)CC1CCOCC1	-7.0
O=C1C2CCCN2C(=S)N1C1CCCCC1 (stereo not given)	-3.6
Cc1cc(C)n(-c2nc3ccccc3nc2Nc2ccc3c(c2)OCO3)n1	114.8
Cc1nc(CN2CC3(CCN(CC4CC4)CC3)OCC2=O)cs1	-0.4
CN(C)C(=O)N1C[C@@H]2OCCN(CCN3CCCC3)[C@H]2C1	5.5
COc1ccc2c3c([nH]c2c1)[C@H](CO)N(C(=O)CN(C)C)CC31CCN(Cc2cncnc2)CC1	4.0

# The listing continues:
molecule	Tg IFNy HTS
CC(C)(C)NC1COC2(CCN(c3ccc(C#N)cc3)CC2)C1 (stereo not given)	-26.7
N#C[C@H]1[C@@H](c2ccccc2-c2ccccc2F)[C@@H](CO)N1C(=O)c1cccc(F)c1	16.5
Cc1ccc(-c2noc(-c3c(O)c4cccc(Cl)c4[nH]c3=O)n2)cc1	10.5
Cc1ccc(C)c(NC(=O)Cn2c(=O)ccc3cc(S(=O)(=O)N4CCCC4)ccc32)c1	-29.8

# A portion of the library; count on the stated rates, not on these rows.
